Compound activity deposited in PubChem by Fisher Drug Discovery Resource Center.
NPYLR7 ag = activates Aedes aegypti NPYLR7 receptor. actives 0.15% (n = 270,000). AID 1259423. activation, % at 10 µM. HEK293T NPYLR7/Galpha15, GCaMP6s calcium fluorescence; in the data active = activation above about 40%;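 note: 0% = vehicle and 100% = reference agonist at the receptor; some compounds past the cut are filed as inactive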
NPYLR7 ag max-min = recorded beside NPYLR7 ag, whose call it bears; activation, %; measured here: Max-Min RFU normalised activation; some inactives read as strong as hits;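 span of the calcium signal over five minutes; 0% = vehicle and 100% = native peptide agonist; compound fluorescence can raise it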
* = called active by the depositor; & = joins results of further samples.

Values run as follows: NPYLR7 ag | NPYLR7 ag max-min
> O=C(c1ccc(-c2ccccc2)[nH]c1=O)N1CCCC(O)(CO)CC1 (stereo not drawn)
    0 | -4
> CCC(C)(C)C1CCC2(CC1)NC(=S)N(CCC(C)C)N2 (stereo not drawn)
    6 | 7
> c1ccc(C2CCN(CCn3ccnc3C3CC3)C2)cc1 (stereo not drawn)
    8 | 7
> Cc1ccc(S(=O)(=O)NC(=O)C2(C)CCN2C(=O)c2ccco2)cc1 (stereo not drawn)
    8 | 7
> COC(=O)c1ccc(/C=N\Nc2nnnn2-c2ccccc2)cc1
    -11 | -19
> CC(Sc1nnc(Nc2ccccc2F)s1)C(=O)NC(C)(C)C (stereo not drawn)
    0 | 25
> CCOC(=O)c1sc(=NC(=O)c2ccc(S(=O)(=O)N(CC(C)C)CC(C)C)cc2)n(C)c1C
    0 | 2
> COc1cccc(NC(=O)CSc2nc(=O)n(CCN(C)C)c3c2CCCC3)c1
    -4 | 0
> CC1(C(=O)NCC2CCCCC2)CCN1C(=O)c1cccc(F)c1 (stereo not drawn)
    4 | 4
> CC(/C=C1\N=C(c2ccccc2Cl)OC1=O)=C\c1ccccc1
    -2 | -6
> Cc1ccccc1C(=O)N1CCC2(CC1)C(=O)N(CC(=O)NCCc1ccccc1)CN2c1ccccc1
    1 | 6
> C[C@@]12CO[C@H](c3ccccc3)C[C@@H]1C[C@@H](N1CCN(C(=O)NC3CCCCC3)CC1)C2
    0 | 5
> O=C(CSc1nccn(-c2ccc3c(c2)OCCO3)c1=O)c1ccc(F)cc1
    -1 | 1
> CNc1ccc(C)cc1C(=O)N[C@H]1C[C@H]2CN(C)CCN2C1
    -2 | 16
> CCCCOC(=O)C(C#N)=Cc1ccc(-c2cccc([N+](=O)[O-])c2)o1
    13 | 7
> CCOC(=O)c1cc(-c2cccc(NC(=O)Cc3cccc(OC)c3)c2)n(-c2cccc(C)c2)n1
    18 | 6
> COc1ccc(S(=O)(=O)CCC(=O)Nc2nnc(-c3cc(C)nn3C)o2)cc1
    3 | 2
> CC(NC(=O)c1ccc(CSc2nc(Cl)cc(N(C)Cc3ccccc3)n2)cc1)c1ccccc1 (stereo not drawn)
    11 | 22
> COc1ccc(N=C2SC(C(=O)Nc3ccccc3F)CC(=O)N2C)cc1 (stereo not drawn)
    3 | 1
> Cc1ccc2oc(-c3cccc(NC(=O)c4ccccc4F)c3C)nc2c1
    7 | 15
> OCC1(CCCc2ccccc2)CCCN(c2nnnn2-c2ccccc2)C1 (stereo not drawn)
    5 | 1
> Cc1cc(C)cc(N2CCCn3c2nc2c3c(=O)n(CCN3CCOCC3)c(=O)n2C)c1
    9 | 1
> CCC(CC)NC(=O)CN1CCC(NC(=O)c2ccccc2)CC1
    1 | 1
> COC(=O)c1nn(-c2ccccc2)nc1N
    9 | 10
> CCONC(=O)c1sc2nc(CC)nc(C)c2c1C
    6 | 3
> CCN(CCOc1ccccc1C)C(=O)c1cn(CC)nc1C
    -4 | -5
> CCCn1c(O)c(C=Nc2nccs2)c(=O)[nH]c1=S
    7 | 5
> COc1ccc(S(=O)(=O)NC(=O)C2(C)CCN2C(=O)c2ccc(C(F)(F)F)nc2C)cc1 (stereo not drawn)
    0 | 2
> O=c1c2cc3c(=O)n(-c4ncn[nH]4)ccc3nc2ccn1CC1CCCO1 (stereo not drawn)
    1 | 5
> Cc1[nH]n(-c2ccccc2)c(=O)c1N=Nc1ccc(Cl)cc1
    -5 | -7
> COc1cc(-c2nc(C=Nc3ccc(F)cc3)c(O)o2)cc(OC)c1OC
    0 | -8
> CN1CCC(N(C)C(=O)NC2CC(=O)N(c3ccccc3)C2)CC1 (stereo not drawn)
    2 | 0
> CSc1ccc(CN(C)C(=O)c2ccc3c(c2)CCCC3)cc1
    8 | 5
> COc1ccccc1N1C(=O)/C(=C/c2ccc(-c3ccc(Cl)c(Cl)c3)o2)C=C1c1ccccc1
    1 | 7
> Cc1noc(-c2ccc(N3CCc4nnc(C5CCCO5)n4CC3)nc2)n1 (stereo not drawn)
    1 | 13
> CCCN(Cc1cc2ccc(C)cc2[nH]c1=O)C(=O)c1cncc(Br)c1
    6 | 5
> COc1cc(OC)c(CN2CCN(C3CCCCC3)C(CCO)C2)c(OC)c1 (stereo not drawn)
    3 | 0
> COC(=O)Cn1ncn2c(cc3sccc32)c1=O
    -5 | -3
> CSC1=N/C(=C\c2cc3c(cc2Br)OCO3)C(=O)S1
    12 | 8
> C=CCn1c(=O)c2c(nc3n(-c4ccc(Br)cc4)c(C)cn23)n(C)c1=O
    13 | 2
> O=C(O)c1nc2ccccc2s1
    1 | 1
> Cc1cc(-c2nc3c(C)cccc3o2)ccc1N
    -5 | -9
> CCOC(=O)c1cc(C(C)c2ccccc2)sc1NC(=O)CCC(=O)OC (stereo not drawn)
    12 | 1
> Clc1cc2c(cc1-c1nccn1CCCn1ccnc1)OCO2
    5 | -8
> COCCN(Cc1nc2ccccc2o1)C(=O)c1cccc(Cl)c1
    3 | 2
> CNCc1ccc(SC(F)F)cc1
    21 | 11
> Nc1ccc(C(O)c2ccccc2)c(Cl)c1 (stereo not drawn)
    -3 | -4
> CCN1CCCC1CNC(=O)c1sccc1-n1cccc1 (stereo not drawn)
    0 | -2
> Cc1nn(CN2CCCCC2Cc2ccccc2)c(=S)s1 (stereo not drawn)
    0 | -2
> O=C(O)c1ccc2c(c1Nc1ccccc1)C(=O)c1ccccc1C2=O
    22 | 15
> CC1CN(C(=O)OC(C)(C)C)CCN1C(=O)c1ccc(=O)[nH]c1 (stereo not drawn)
    4 | 0
> O=c1c2cc(F)ccc2oc2ccc(F)cc12
    3 | 1
> Cc1noc(-c2ccncc2)c1C(=O)NCC1CCCO1 (stereo not drawn)
    15 | 17
> CN(C)C1CCCCC1=O (stereo not drawn)
    0 | 2
> CC1(C)O[C@@H]2C[C@@](OCc3cccc(Cl)c3)(C(=O)NCC3CCCO3)CC(OCc3cccc(OC(F)(F)F)c3)[C@@H]2O1 (stereo partly drawn)
    5 | 6
> CCCN(CC1CC1)c1oc(-c2ccc(F)cc2)nc1C#N
    -1 | -2
> O=C(NCc1ccc(F)cc1)c1cc(-c2ccccc2Cl)nn1-c1ccc(Cl)cc1
    15 | 18
> CNC(=O)Cn1ccc2ccc(NC(=O)c3cccc(F)c3F)cc21
    -8 | -8
> CCOC(=O)C1(C)CCN1C(=O)c1cc(C)n(C(C)(C)C)n1 (stereo not drawn)
    -4 | -9
> Nc1c(Cl)cc(NC(=O)C(c2ccccc2)n2cccn2)cc1Cl (stereo not drawn)
    1 | 2

Exported field by field: 2 of the compounds above.
structure: COCCN(Cc1nc2ccccc2o1)C(=O)c1cccc(Cl)c1
  NPYLR7 ag: 3
  NPYLR7 ag max-min: 2
structure: CNCc1ccc(SC(F)F)cc1
  NPYLR7 ag: 21
  NPYLR7 ag max-min: 11

The listing continues.
Values run as follows: NPYLR7 ag | NPYLR7 ag max-min
> Cc1ccnc(C(NC(=O)c2cccc3ccnn23)C2CC2)c1 (stereo not drawn)
    1 | 0
> COc1ccc(C(CC(=O)NCCN2CCCC2)c2c[nH]c3ccccc23)c(OC)c1 (stereo not drawn)
    5 | 8
> O=c1cc(CNC(c2ccccc2)c2ccccc2)nc2ccccn12
    0 | -3
> O=C(O)C1Cc2[nH]cnc2C(c2ccc(F)cc2)N1C(=S)Nc1ccccc1 (stereo not drawn)
    7 | -5
> COC(=O)C1=C(C)Nc2nc(SCC(C)C)[nH]c(=O)c2C1c1ccc(F)cc1 (stereo not drawn)
    0 | -7
> CC1ON=C(c2ccccn2)N(CCc2c[nH]c3ccccc23)C1=O (stereo not drawn)
    7 | 3
> COc1cc(CN2CCCn3cccc3C2c2cccc(C(F)(F)F)c2)ccc1O (stereo not drawn)
    19 | 28
> O=C1OCCC1Sc1nnc(Cc2cccc(F)c2)o1 (stereo not drawn)
    10 | 4
> O=C(Cc1coc2ccc3ccccc3c12)NC1CC1
    -5 | -5
> CCN(CC)c1cc(Cl)nc(SCc2ccc(C(=O)N3CCN(c4ccc(OC)cc4)CC3)cc2)n1
    -1 | 5
> O=C(CCC1CCN(C(=O)c2ccccc2F)CC1)NCc1cccc(C(F)(F)F)c1
    0 | -6
> CCOC(=O)CCc1c(C)nc2ncnn2c1N1CCN(C(=O)c2c(Cl)cccc2Cl)CC1
    14 | 2
> CCCNC(=O)c1cn(C)cc2c(=O)n(-c3ccccc3)nc1-2
    1 | -1
> Cc1ccccc1C1c2ccsc2CCN1C(C)C(=O)N1CCN(C(=O)c2ccc(Cl)cc2Cl)CC1 (stereo not drawn)
    10 | -3
> CC(C)NC(=O)C1(C)CCCN1C(=O)c1ccc2c(c1)C(C)(C)CCC2(C)C (stereo not drawn)
    1 | -1
> COc1ccc(C2CCCN2C(=O)COc2ccccc2C)c(OC)c1 (stereo not drawn)
    5 | 2
> COc1ccc(/C=C/c2cc(C(=O)O)ncn2)cc1Br
    -22&0 | -22&-2
> c1ccc2c(CSc3nnnn3C3CC3)cccc2c1
    1 | 3
> CCc1nc(C)c(C(=O)N(C)CC2CCN(c3ccccc3)C2)o1 (stereo not drawn)
    4 | -1
> N#CCCn1cc(CO)c(-c2ccc(Br)cc2)n1
    -3 | -1

4 compounds out of the list, sorted by heavy-atom count, falling.
Values run as follows: NPYLR7 ag | NPYLR7 ag max-min
> COc1ccc(C(CC(=O)NCCN2CCCC2)c2c[nH]c3ccccc23)c(OC)c1 (stereo not drawn)
    5 | 8
> COc1cc(CN2CCCn3cccc3C2c2cccc(C(F)(F)F)c2)ccc1O (stereo not drawn)
    19 | 28
> O=c1cc(CNC(c2ccccc2)c2ccccc2)nc2ccccn12
    0 | -3
> CCc1nc(C)c(C(=O)N(C)CC2CCN(c3ccccc3)C2)o1 (stereo not drawn)
    4 | -1

Continuation:
Values run as follows: NPYLR7 ag | NPYLR7 ag max-min
> Cc1cc(C)c(Cn2ccnc2CN(CCN2CCOCC2)C(=O)c2cccc(F)c2)c(C)c1
    6 | 14
> O=C(Nc1sc2c(c1-c1nc3ccccc3s1)CCCC2)c1ccno1
    -4 | -13
> O=C(NC1CCCCC1)c1c(O)nc2ccccn2c1=O
    -1 | 21
> O=C(CN1C(=C(O)c2ccccc2)C(=O)c2ccccc2S1(=O)=O)c1ccccc1
    7 | 4
> COc1ccccc1CNC(=O)C1(C)CCN1C(=O)C1(c2ccccc2)CC1 (stereo not drawn)
    3 | 4
> O=C(NCc1ccc(Cn2cnc3ccccc32)cc1)NC1CCOCC1
    1 | 15
> C=CCOC(=O)Nc1ccc(C(O)(C(=O)OCC)C(F)(F)F)cc1C (stereo not drawn)
    -1 | -3
> O=C(NC1C=CS(=O)(=O)C1)c1csc(Cc2ccccc2)n1 (stereo not drawn)
    7 | 5
> O=C(CSc1nnc(-c2ccc(F)cc2)n1CC1CCCO1)N1CCC(Cc2ccccc2)CC1 (stereo not drawn)
    0 | 23
> COc1cccc(-c2nnc(SCc3nc(C(=O)N4CC5(C)CC4CC(C)(C)C5)cs3)n2-c2ccccc2)c1 (stereo not drawn)
    -4 | 4
> CCOC(=O)CCC(=O)Nc1nnc(SCC2CC2)s1
    -3 | -1
> CCOC(=NCc1ccco1)NC(=O)c1ccc(Cl)c(Cl)c1
    -5 | 7
> O=C1CC2(CCCCC2)C(=O)N1C/C=C/c1ccccc1
    -6 | -102
> O=C(C=Cc1cc(Cl)c2c(c1)OCO2)N1CCN(CCOc2ccccc2)CC1
    0 | 4
> CCN1CCN(Cc2ccc(CNC(=O)c3scnc3C)cc2)CC1
    5 | 2
> COc1ccc(S(=O)(=O)N2CCC(Cc3ccccc3)CC2)cc1N1CCN(C(=O)C2(c3ccc(Cl)cc3)CCCC2)CC1
    14 | 11
> CN(Cc1ccc(N2CCCCC2)cc1)C(=O)c1cc(Br)cn1C
    6 | 4
> O=C(c1ccc(F)cc1)N(Cc1c(-c2ccccc2F)noc1N1CCOCC1)CC1CCCO1 (stereo not drawn)
    1 | 7
> CC1CN(c2cc(Cl)nc(SCC(=O)NC3CCN(Cc4ccccc4)CC3)n2)CCN1C(=O)NC(C)(C)C (stereo not drawn)
    6 | 6
> C=CCNC(=O)N1CCN(c2ccc([N+](=O)[O-])cc2)CC1
    23 | 14
> NS(=O)(=O)c1ccc2c(c1)CCN2Cc1cccc2ccccc12
    -6 | -6
> CCCCOc1ccc(S(=O)(=O)NC(=O)C2(C)CCN2C(=O)Cc2ccsc2)cc1 (stereo not drawn)
    2 | -1
> CCCN1CCCN(C(=O)Nc2cccc(Cn3ccccc3=O)c2)CC1
    -1 | 29
> CCn1c(SCC(=O)c2c(C)[nH]c3ccccc23)nnc1-c1ccco1
    4 | -3
> CN(Cc1ccc(C#N)cc1)C(=O)c1cc(Cl)ccc1O
    3 | 4
> CCc1ccc(NC(=O)CSc2ncc(S(=O)(=O)c3ccc(OC)cc3)c(=O)[nH]2)cc1
    -5 | -7
> O=c1[nH]c(C2CC2)nc2sc3c(c12)CCSC3
    5 | -1
> CCCc1c(C(=O)Nc2cc(-c3onc4c3CCCC4)ccc2C)cnn1-c1ccccc1
    2 | 0
> CCc1nc2ccccc2n1CC(=O)NC(C)c1cccs1 (stereo not drawn)
    -6 | -8
> COc1ccc(C(=O)N(Cc2cc(NC(=O)C3CCCC3)ccc2N(C)C)C(C)c2ccccc2)cc1 (stereo not drawn)
    0 | 4
> COCCOC(=O)C1=C(C)N(C)C(=S)NC1c1ccc(NC(=O)c2ccccc2Br)cc1 (stereo not drawn)
    20 | 21
> Cc1c(C(=O)NC2CCCN(S(C)(=O)=O)C2)sc2cccc(F)c12 (stereo not drawn)
    5 | 3
> O=C(/C=C/c1ccc([N+](=O)[O-])cc1)N(Cc1ccncc1)c1nc2c(F)cc(F)cc2s1
    -2 | -7
> CCOC(=NCCc1ccc(OC)c(OC)c1)NC(=O)c1ccc(F)cc1
    8 | 13
> CCC(C)Nc1nc(N)c([N+](=O)[O-])c(N2CCN(CC)CC2)n1 (stereo not drawn)
    3 | -1

Given with each value named: 2 of the compounds above.
compound: NS(=O)(=O)c1ccc2c(c1)CCN2Cc1cccc2ccccc12
  NPYLR7 ag: -6
  NPYLR7 ag max-min: -6

compound: CCCCOc1ccc(S(=O)(=O)NC(=O)C2(C)CCN2C(=O)Cc2ccsc2)cc1 (stereo not drawn)
  NPYLR7 ag: 2
  NPYLR7 ag max-min: -1

A portion of the library; rates above refer to the full screens.
